Bioassay records from PubChem.
Methyltransferases: Primary Screen for Target Class Profiling of Small Molecule Inhibitors of Methyltransferases; purified enzyme, MTase-Glo SAH luminescence; active compounds read low; calls only at 40 µM; hit rate 3.9% among 25,000; active = -50% or lower on at least one of six enzymes; inconclusive = the cases between; inactive = as a rule above -30% on all six;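 note: enzymes were COMT GAMT GNMT HNMT NNMT and PNMT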
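Each enzyme was reacted with SAM and its substrate, with compounds tested once at 40 uM; SAH formed was read by MTase-Glo luminescence.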
Calls only; i = inactive; ? = inconclusive; + = active, no number. % is set by controls: 0 for no effect and ±100 for the full control effect. An excerpt, so the mix of outcomes need not match the whole.

SMILES | Methyltransferases
CNC(=O)N1CCC(C2CCN(C(=O)CCn3cccn3)C2)CC1 (stereo not given) | i
CC1(C)CCCC2(C)c3c4c(c(=O)oc(=O)c3=CCC12)=CCC1C(C)(C)CCCC41C (stereo not given) | i
COCCNC(=O)CCc1nnc2n(Cc3ccc(C)cc3)c(=O)c3ccccc3n12 | i
Cc1cc(OC2CN(Cc3ccnn3C)C2)ccc1F | i
CCCN1C(=O)c2c(C(=O)NCc3ccc(OC)cc3OC)ncn2CC1(C)C(=O)NCc1ccc(F)cc1 (stereo not given) | i
COc1cccc(CNC(=O)c2c(C)noc2-c2ccccc2OC)c1 | i
CC(C)Cn1c(=O)c2ccc(C(=O)NC3CCCCC3)cc2n2c(=O)n(CC(=O)c3ccccc3)nc12 | i
COc1cccc(CNc2ccc(S(=O)(=O)Nc3nc4ccccc4s3)cc2)c1O | ?
CN1C(=O)c2cc(C(=O)NCCCN3CCc4ccccc4C3)nn2CC1(C)C(=O)NC1CCCC1 (stereo not given) | i
COc1ccc2nc(NC(=O)Cn3c(=O)oc4cc(S(=O)(=O)NC(C)C)ccc43)sc2c1 | i
O=C(Cn1nc2n(Cc3ccccc3)c(=O)c3ccccc3n2c1=O)Nc1cc(F)ccc1F | i
CCCN1C(=O)c2cc(-c3ccc(OC)cc3)nn2CC1(C)C(=O)NC1CCCCC1 (stereo not given) | i
O=C(CCn1cnnn1)N1CCCC(CCc2cccc(C(F)(F)F)c2)C1 (stereo not given) | i
Cc1ccc(Cn2nc3n(C(C)C)c(=O)c4ccc(C(=O)NC5CCCC5)cc4n3c2=O)cc1 | i
COc1cc(/C=C/C(=O)OC2CC(OC(C)=O)C(OC(C)=O)C3C2CCC2C(=O)OC(c4ccoc4)CC23C)ccc1O[C@@H]1O[C@H](CO)[C@@H](O)[C@H](O)[C@H]1O (stereo not given in full) | i
CN(C)[C@@H]1CN(C(=O)C2CCCCC2)CC[C@@H]1CO | i
Cc1ccc([C@H]2C[C@@H](O)[C@@H](O)[C@@H]2NS(C)(=O)=O)cc1 | i
CCCNC(=O)N1CCC(N2CC(OCC3CC3)C23CCCCC3)CC1 (stereo not given) | i
Cc1c(NC(=O)c2cc(C(N)=O)nc3cc(F)ccc23)c(C(F)(F)F)nn1Cc1ccc(C#N)cc1 | i
COc1ccc2cc3n(c2c1)CC(C)(C(=O)NC1CCCCC1)N(Cc1ccccc1C)C3=O (stereo not given) | i
CC1Oc2ccc(NC(=O)c3cccs3)cc2CN(CCOc2ccccc2)C1=O (stereo not given) | i
COC(=O)c1ncn2c1C(=O)N(Cc1ccccc1C)C(C)(C(=O)NC1CCCCCC1)C2 (stereo not given) | i
CCN1CCC2(CCC1=O)CN(Cc1nnc(-c3cccnc3)o1)CCN2C (stereo not given) | i
Cc1ccc(C(=O)CSc2nnc3n(C)c(=O)c4ccc(C(=O)NC5CCCCC5)cc4n23)c(C)c1 | i
Cc1ccc(F)cc1C(=O)Nc1ccc(C(=O)N2Cc3cccn3Cc3ccccc32)c(Cl)c1 | ?
Cc1ccc(Cn2c(=O)c3ccccc3n3c(=O)n(CC(=O)c4ccc(F)cc4)nc23)cc1 | i
O=C(c1ccccc1F)N1CCC2(CC(c3cccc(C(F)(F)F)c3)=NO2)C1 (stereo not given) | i
CC(C)=CCc1cc(O[C@@H]2O[C@H](CO[C@@H]3OC[C@](O)(CO)[C@H]3O)[C@@H](O)[C@H](O)[C@H]2O)ccc1O | i
Cc1cccc(-c2nnn3c2nc(N2CCSCC2)c2cc(Cl)ccc23)c1 | i
Cc1ccc(NC(=O)CN(C)S(=O)(=O)c2ccc3[nH]c4c(c3c2)CCCC4)cc1C | i
O=S(=O)(NC[C@@H]1CCNC[C@H]1O)c1ccc(OC(F)(F)F)cc1 | i
CC(OC1OCCN(Cc2n[nH]c(=O)[nH]2)C1c1ccc(F)cc1)c1cc(C(F)(F)F)cc(C(F)(F)F)c1 (stereo not given) | ?
CC1CCC(NC(=O)C2(C)Cn3c(ccc3-c3ccco3)C(=O)N2Cc2ccc(Cl)cc2)CC1 (stereo not given) | i
O=C1NC2(CCCN(C(=O)c3ccc(F)cc3)C2)Oc2ccccc21 (stereo not given) | i
O=C(CCc1nnc2n(Cc3ccccc3Cl)c(=O)c3ccccc3n12)NCCN1CCOCC1 | i
NCCC(=O)N1CCC2(CC1)CN(C(=O)c1ccc(Cl)cc1)CCO2 | i
CNC(=O)NCCc1ncc(C)n1C1CCCCCCC1 | +
Cc1ccc(C(=O)/C=C/c2ccccc2)s1 | ?
O=C(O)CO[C@@H]1COCC[C@H]1NC(=O)c1ccccc1-c1ncn[nH]1 | i
CC(=O)O[C@@H]1[C@H](O)[C@@H](O[C@@H]2O[C@@H](C)[C@H](O[C@@H]3OC[C@@H](O)[C@H](O[C@@H]4OC[C@@H](O)[C@H](O)[C@H]4O)[C@H]3O)[C@@H](O[C@@H]3O[C@H](CO)[C@@H](O)[C@H](O)[C@H]3O)[C@H]2O)[C@H](OC(=O)[C@]23CCC(C)(C)C[C@H]2C2=CCC4[C@@]5(C)CC[C@H](O[C@@H]6O[C@H](C(=O)O)[C@@H](O)[C@H](O[C@@H]7OC[C@@H](O)[C@H](O)[C@H]7O)[C@H]6O[C@@H]6O[C@H](CO)[C@H](O)[C@H](O)[C@H]6O)[C@@](C)(C=O)C5CC[C@@]4(C)[C@]2(C)CC3)O[C@@H]1C (stereo not given in full) | i
Cc1ccc([N+](=O)[O-])cc1S(=O)(=O)N(C)/N=C/c1cnc2ccc(Br)cn12 | +
Cc1ccc(S(=O)(=O)c2ccc([N+](=O)[O-])o2)cc1 | i
O=C(NCc1ccccc1Cl)c1ccc2nnc(-c3ccoc3)n2c1 | ?
COc1cccc(N2CCN(C(=O)c3ccc4c(=O)nc5c(-c6ccccc6)n[nH]n5c4c3)CC2)c1 | i
Cc1ccccc1CN1C(=O)c2nc3ccccc3n2CC1(C)C(=O)NC1CCCC1 (stereo not given) | i
C/C=C(\C)C(=O)O[C@H]1C=CC(=O)O[C@H]1/C=C/[C@@H](O)[C@H](C)O | i
O=C1CCCCC(Cc2cccnc2)(C(=O)NCC2CC2)N1 (stereo not given) | i
Cc1ccc(N2CCN(C(=O)c3cc(C(F)(F)F)nn3C)CC2=O)cc1 | i
COCCNS(=O)(=O)c1cc(C(=O)O)cc(-c2ccncc2)c1 | i
COc1ccc2[nH]c(=O)c3c(c2c1)OC(C)(C)C=C3 | i
More structures:
SMILES | Methyltransferases
CC1=CCC(C(C)(C)O[C@@H]2O[C@H](CO[C@@H]3O[C@@H](C)[C@H](O)[C@@H](O)[C@H]3O)[C@@H](O)[C@H](O)[C@H]2O)CC1 (stereo not given in full) | i
Cc1ccc(CN2C(=O)c3nc4ccccc4n3CC2(C)C(=O)NCc2ccccc2)cc1 (stereo not given) | i
O=C(C1CCC1)N1CCC2(CC1)CC(N1CCCCC1)CCO2 (stereo not given) | i
CCOC(=O)c1ccc(OCCC2CCN(c3ccc(C)nn3)CC2)cc1 | ?
O=C(CCCc1nnc2n3nc(-c4ccccc4)nc3c3ccccc3n12)N1CC=C(c2ccccc2)CC1 | i
CC(=O)c1ccc(Nc2nc3c(S(=O)(=O)c4ccc(Br)cc4)nnn3c3ccccc23)cc1 | i
CC(=O)N[C@@H](CS)C(=O)O | i
C=C1C(O)CCC2(C)CC3(OC)OC(=O)C(C)=C3CC12 (stereo not given) | i
O=C1NC(c2cccc([N+](=O)[O-])c2)=CCN1c1ccccc1O | i
COc1ccc(CNC(=O)C[C@@H]2C[C@H]3O[C@H](CNC4CCCC4)[C@@H](O)[C@H]3O2)cc1 | i
O=C(NCCc1ccc(Cl)cc1)C1CCc2nnc(CN[S+](=O)([O-])c3ccccc3Cl)n21 (stereo not given) | i
CC(C)CNC(=O)c1ccc2c(=O)n(Cc3ccccc3)c3nn(CC(=O)NC(C)(C)C)c(=O)n3c2c1 | i
O=C(CCCc1nnc2n3nc(-c4ccccc4)nc3c3ccccc3n12)N1CCN(c2ccccc2)CC1 | i
COc1ccc(S(=O)(=O)N2CCCCC2c2n[nH]c(C)n2)cc1 (stereo not given) | i
N#Cc1cccc(C(=O)Nc2ccc([C@H]3OCC(=O)N(Cc4ccc(F)cc4)[C@@H]3CO)cc2)c1 | i
COc1cc(C(C)=O)ccc1O[C@@H]1O[C@H](CO[C@@H]2O[C@@H](C)[C@H](O)[C@@H](O)[C@H]2O)[C@@H](O)[C@H](O)[C@H]1O | i
CCOC(=O)c1cc2n(n1)CC(C)(C(=O)NCc1ccc(F)cc1)N(Cc1cccc(OC)c1OC)C2=O (stereo not given) | i
O=S(=O)(c1ccccc1)c1nnn2c1nc(NCCc1ccc(Cl)cc1)c1ccccc12 | i
O=C(C1COc2cc(S(=O)(=O)NCCN3CCOCC3)ccc2O1)N1CCOCC1 (stereo not given) | i
CCCCN1C(=O)c2cc(C(=O)Nc3ccc(C)cc3)nn2CC1(C)C(=O)NC1CCCC1 (stereo not given) | i
Cn1cc(-c2nc(N3CCOCC3)cc3c2CN(CC2CC2)C3=O)cn1 | i
CCOC(=O)C(Cc1c[nH]c2ccccc12)NC(=O)c1ccccc1Br (stereo not given) | i
CC1CCN(S(=O)(=O)c2ccc3c(ccn3CCC(=O)NCCC3=CCCCC3)c2)CC1 | i
O=c1c2ccccc2n2c(-c3ccc(Br)cc3)nnc2n1CCc1ccccc1 | i
Cc1c(NC(=O)CCc2cc3n(n2)CCNC3)cccc1-c1nncn1C | i
CCNC(=O)N(C1CC1)C1CCOC2(CCN(C(=O)COc3ccccc3)CC2)C1 (stereo not given) | i
Cc1cccc(C)c1OCc1cc(C(=O)N2CCC(c3ccncc3)CC2)no1 | ?
Cc1ccc(CNC(=O)CCc2nnc3n(Cc4ccc(Cl)cc4)c(=O)c4ccccc4n23)cc1 | i
COc1ccc(-c2nnc(-c3ccc(OC)c(S(=O)(=O)N4CCCCC4)c3)o2)cc1OC | i
CCOc1ccccc1C(=O)N1CCC(c2n[nH]c(=O)n2Cc2ccc(OC)cc2)CC1 | i
O=C(Cn1ccc2cc(S(=O)(=O)N3CCCC3)ccc21)NCCc1ccco1 | i
CC1(C(=O)NC2CCCCC2)Cn2nc(-c3cccs3)cc2C(=O)N1Cc1ccc(F)cc1 (stereo not given) | i
CN(Cc1cc(F)c(F)c(F)c1)C1CCc2nn(CC3CC3)c(=O)n2CC1 (stereo not given) | i
C[C@H]1CC[C@@]2(OC1)O[C@H]1CC3C4CC[C@H]5C[C@@H](O)CC[C@]5(C)C4CC(=O)[C@]3(C)[C@H]1[C@@H]2C (stereo not given in full) | i
Cc1ccccc1CSc1nnc2n(C)c(=O)c3ccc(C(=O)NC4CCCCC4)cc3n12 | i
C=CCNC(=O)c1cn2c(n1)CN(C(C)=O)CC2 | i
COc1ccc(CN2C(=O)c3cc4sccc4n3CC2(C)C(=O)NC2CCC(C)CC2)cc1 (stereo not given) | i
CC1(C(=O)NC2CCCCC2)Cn2c(cc3ccccc32)C(=O)N1Cc1ccc(Cl)cc1 (stereo not given) | i
Cc1cc(Cl)ccc1NC(=O)CN(C)S(=O)(=O)c1ccc2[nH]c3c(c2c1)CCCC3 | i
CN(C)C(N)=NCCC[C@H](N)C(=O)O | i
Cc1ccc(C(=O)Cn2nc3n(C(C)C)c(=O)c4ccc(C(=O)NCC(C)C)cc4n3c2=O)cc1 | i
O=C(NC1CCCC1)N1Cc2c(sc3c2CCCC3)-n2cccc2C1c1ccc(F)cc1 (stereo not given) | i
CC1(C(=O)NCc2ccc(F)cc2)Cn2cnc(C(=O)Nc3cc(F)ccc3F)c2C(=O)N1C1CC1 (stereo not given) | i
CCc1noc([C@@H]2CC(F)(F)CN2C(=O)c2ccco2)n1 | i
C#CCNC(=O)CNC(=O)c1cccc(-c2cc(F)ccc2OC)c1 | i
Cc1ccc(CNC(=O)c2cc3n(n2)CC(C)(C(=O)NCc2ccc(C)cc2)N(C)C3=O)cc1 (stereo not given) | i
CC1(C)CCCC2(C)C(C(=O)O)=CCC12 (stereo not given) | i
Cc1ccccc1CN1C(=O)c2nc3ccccc3n2CC1(C)C(=O)NC1CCCCC1C (stereo not given) | i
C[C@@]12CO[C@@H](CNS(C)(=O)=O)O[C@@H]1CC[C@]1(C)[C@@H]2CC[C@@H](O)[C@H]1CC(=O)NCc1ccco1 | i
OCC1O[C@H](O)C(Cl)C(O)C1O (stereo not given in full) | i
Cc1cccc(CSc2nnc3n(CCC(C)C)c(=O)c4ccccc4n23)c1 | i
COc1ccc(-c2nccn2CC(CO)Cc2ccsc2)cc1O (stereo not given) | ?
Cc1cccc(-c2n[nH]n3c2nc(=O)c2ccc(C(=O)NCCc4ccc(Cl)cc4)cc23)c1 | i

By substructure, the compounds so far with a Cl atom.
SMILES | Methyltransferases
Cc1ccc(F)cc1C(=O)Nc1ccc(C(=O)N2Cc3cccn3Cc3ccccc32)c(Cl)c1 | ?
Cc1cccc(-c2nnn3c2nc(N2CCSCC2)c2cc(Cl)ccc23)c1 | i
CC1CCC(NC(=O)C2(C)Cn3c(ccc3-c3ccco3)C(=O)N2Cc2ccc(Cl)cc2)CC1 (stereo not given) | i
O=C(CCc1nnc2n(Cc3ccccc3Cl)c(=O)c3ccccc3n12)NCCN1CCOCC1 | i
NCCC(=O)N1CCC2(CC1)CN(C(=O)c1ccc(Cl)cc1)CCO2 | i
O=C(NCc1ccccc1Cl)c1ccc2nnc(-c3ccoc3)n2c1 | ?
O=C(NCCc1ccc(Cl)cc1)C1CCc2nnc(CN[S+](=O)([O-])c3ccccc3Cl)n21 (stereo not given) | i
O=S(=O)(c1ccccc1)c1nnn2c1nc(NCCc1ccc(Cl)cc1)c1ccccc12 | i
Cc1ccc(CNC(=O)CCc2nnc3n(Cc4ccc(Cl)cc4)c(=O)c4ccccc4n23)cc1 | i
CC1(C(=O)NC2CCCCC2)Cn2c(cc3ccccc32)C(=O)N1Cc1ccc(Cl)cc1 (stereo not given) | i
Cc1cc(Cl)ccc1NC(=O)CN(C)S(=O)(=O)c1ccc2[nH]c3c(c2c1)CCCC3 | i
OCC1O[C@H](O)C(Cl)C(O)C1O (stereo not given in full) | i
Cc1cccc(-c2n[nH]n3c2nc(=O)c2ccc(C(=O)NCCc4ccc(Cl)cc4)cc23)c1 | i
